VCAM-1 imaging: suppression of endothelial VCAM-1 upregulation – imaging, high-content imaging, pooled HUVEC, TNFa stimulus (AID 456); HUVEC TNFa-induced VCAM-1 surface expression, immunofluorescence imaging; numbers were filed only for top-ranked candidate wells; 0.2% of 10,000 active; one-dose inhibition, % at 5 µM; IC50 in µM for titrated hits;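 active means top tenth filtered wells with inhibition above zero that passed visual or statistical confirmation; inactive means the rest, including hits rejected on review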;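 further: 0% = stimulated vehicle wells and 100% = unstimulated cells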
FPR ligand: binds the human formylpeptide receptor FPR. FPR-expressing cells, fluorescent ligand binding, flow cytometry. P21462. 0.74% of 24,000 active. inhibition, %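 (tested at 6.7 µM)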;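 further: 0% = buffer wells and 100% = receptor blocker peptide wells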
Target sequence (P21462 whole entry, looked up): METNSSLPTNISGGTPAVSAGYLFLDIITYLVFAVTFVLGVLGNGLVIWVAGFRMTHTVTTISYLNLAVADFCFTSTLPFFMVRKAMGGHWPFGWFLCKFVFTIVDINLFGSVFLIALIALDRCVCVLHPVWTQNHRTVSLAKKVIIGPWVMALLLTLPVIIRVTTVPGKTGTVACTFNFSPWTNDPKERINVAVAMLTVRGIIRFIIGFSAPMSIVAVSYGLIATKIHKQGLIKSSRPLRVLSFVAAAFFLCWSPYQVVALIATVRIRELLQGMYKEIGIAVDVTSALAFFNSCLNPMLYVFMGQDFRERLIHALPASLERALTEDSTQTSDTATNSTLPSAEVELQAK
VCAM-1 augmentation: boosters of cytokine-driven VCAM-1 levels – imaging, high-content imaging, pooled HUVEC, TNFa stimulus (AID 457); calls only; 0.2% of 10,000 active; Pooled HUVEC, TNFa-induced VCAM-1 immunofluorescence imaging; hits of this screen are not shown here;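 active means a top-ranked rise in VCAM-1 staining upheld on image or statistical review; inactive means the rest, including candidates rejected on review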;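 further: compounds tested at 5 µM in the well; cells exposed to compound for 24 hours before fixing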
VCAM-1 inhibition: inhibitors of TNFa-induced VCAM-1 surface display, cell-based, plate reader, pooled HUVEC, TNFa stimulus (AID 454); HUVEC TNFa-induced VCAM-1 surface immunofluorescence, plate reader; numbers were filed only for top-ranked candidate wells; inhibition, % at 5 µM; 0.2% of 10,000 active;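 active means compound among top-ranked inhibitors of TNF-induced VCAM-1 adhesion protein staining, with the hit upheld by image or statistical review; inactive means the rest, including hits rejected on review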;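 further: 0% = TNFa with vehicle and 100% = cells without TNFa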
FPRL1 ligand: ligands of human FPRL1, also counter-screen for FPR ligands. P25090. FPRL1-expressing cells, fluorescent ligand binding inhibition, flow cytometry. inhibition, %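 (tested at 6.7 µM)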. 0.3% of 24,000 active. AID 441;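 further: 0% = buffer alone and 100% = receptor blocker peptide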
Target sequence (P25090 whole entry, looked up): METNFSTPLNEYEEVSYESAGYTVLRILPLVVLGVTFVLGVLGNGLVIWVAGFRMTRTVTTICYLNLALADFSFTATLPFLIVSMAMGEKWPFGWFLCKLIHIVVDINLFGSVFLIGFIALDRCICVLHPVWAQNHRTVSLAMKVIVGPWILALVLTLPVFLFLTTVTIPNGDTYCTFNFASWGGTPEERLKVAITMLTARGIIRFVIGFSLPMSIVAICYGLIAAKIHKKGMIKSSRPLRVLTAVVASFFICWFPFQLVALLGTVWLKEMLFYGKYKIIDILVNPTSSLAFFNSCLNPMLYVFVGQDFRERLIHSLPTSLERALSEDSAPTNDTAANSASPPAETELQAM
* hit, by the source's call; i = inactive; . = no result given.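 How the source made its calls, unless noted: active means mean above 30%; inconclusive means self-fluorescent; inactive means the rest.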 An excerpt (hit frequency here may not be typical).

SMILES | VCAM-1 imaging | FPR ligand | VCAM-1 augmentation | VCAM-1 inhibition | FPRL1 ligand
CCC1C(=O)n2nc(-c3ccccc3)cc2N=C1C (stereo unspecified) | i | 2 | i | i | 1
O=C(CC(Cc1ccccc1)C(=O)O)NCCc1ccc2c(c1)OCO2 (stereo unspecified) | i | 4 | i | i | 1
COc1ccccc1Cc1nc(-c2ccc(Br)o2)no1 | . | 2 | . | . | 0
COc1c(Cl)cc(Cl)cc1/C=N/n1cnnc1 | . | 11 | . | . | 10
O=C1C2CCCN2C(c2cccs2)N1c1ccc(Cl)cc1 (stereo unspecified) | . | 0 | . | . | 2
CCOc1ccccc1NC(=O)Cn1nnc(C(=O)NCc2ccco2)c1N | . | 0 | . | . | 4
CCOC(=O)c1ccc2[nH]c3c(c2c1)CCCCC3=O | i | 4 | i | i | 2
CCN(CC)CCNC(=O)C1CCC(=O)N(c2ccc(OC)cc2)C1c1ccc(F)cc1 (stereo unspecified) | . | 3 | . | . | -2
O=C(c1cc2ccccc2oc1=O)N1CCSC1c1ccco1 (stereo unspecified) | i | 1 | i | i | -2
O=C(NCCN1CCc2ccccc2C1)C1CCN(S(=O)(=O)N2CCC3(CC2)OCCO3)CC1 | . | 0 | . | . | 0
Cc1ccc(NC(=O)c2ocnc2C)cc1Cl | . | 0 | . | . | -5
O=C(c1ccc(CS(=O)(=O)c2ccc(Br)cc2)o1)N1CCOCC1 | . | -5 | . | . | -2
Cc1cc(S(=O)(=O)N2CCN(Cc3ccc4c(c3)OCO4)CC2)cc(C)c1N1CCCC1=O | . | 2 | . | . | 2
CCOC(=O)N1CCN(C(=O)c2nn(-c3cc(OC)cc(OC)c3)c(=O)c3ccccc23)CC1 | . | -5 | . | . | -1
Cn1c(Cn2c(=O)sc3ccccc32)nnc1SCC(N)=O | . | -8 | . | . | -2
CCOc1ccccc1NC(=O)CCN1CCN(S(=O)(=O)c2ccc(Br)cc2)CC1 | i | 7 | i | i | -2
COc1cc(C2C(C(=O)c3cccs3)=C(O)C(=O)N2Cc2ccco2)cc(OC)c1OC (stereo unspecified) | . | 83* | . | . | 27
COc1cccc(NC(=O)C2CCCN(S(=O)(=O)c3cccc4nsnc34)C2)c1 (stereo unspecified) | . | -6 | . | . | 3
COc1ccccc1CNC(=O)C1CCC(CNc2c(N3CCOCC3)c(=O)c2=O)CC1 (stereo unspecified) | i | -6 | i | i | -2
COC(=O)CNC(=O)c1c(C)cc(=O)oc1C | i | -6 | i | i | 0
Cc1ccccc1NC(=O)NCCCN1CCN(C2CCCCC2)CC1 | i | -4 | i | i | -3
COc1ccccc1CNC(=O)c1oc2ccc(S(=O)(=O)N3CCCC3)cc2c1C | . | 23 | . | . | 8
O=c1ccn(CCOc2ccc(Cl)cc2)c(=O)[nH]1 | . | 7 | . | . | 1
CCC1CCCCN1CCNC(=O)C1CCN(S(=O)(=O)c2c(C)noc2C)CC1 (stereo unspecified) | . | -20 | . | . | -22
CCOC(=O)N1CCN(c2c(NCCc3ccc(OC)c(OC)c3)c(=O)c2=O)CC1 | . | 1 | . | . | 1
O=C(O)CC(NC(=O)c1ccccc1NC(=O)c1ccccc1)C(=O)O (stereo unspecified) | i | -8 | i | i | -1
O=C(CS(=O)(=O)c1cn(Cc2ccc(Cl)cc2)c2ccccc12)N1CCOCC1 | i | 15 | i | i | 3
O=C(Nc1ccon1)c1cccc(S(=O)(=O)N2CCCC2)c1 | i | 11 | i | i | 0
COCCCN1C(=O)C(=O)/C(=C(/O)c2ccc(OC(C)C)cc2)C1c1ccncc1 (stereo unspecified) | . | 3 | . | . | -2
CCOC(=O)N1CCN(S(=O)(=O)c2cc(C)c(C)cc2C)CC1 | i | 1 | i | i | -3
NC(=O)CSc1oc(-c2ccc(F)cc2)nc1S(=O)(=O)c1ccccc1 | . | -10 | . | . | 9
O=C(Nc1cccc2c1CCCC2)C1CCCN(S(=O)(=O)c2cccc3nonc23)C1 (stereo unspecified) | . | -1 | . | . | -6
C#CC(CO)N(CCN(Cc1ccccc1)C(C#C)CO)Cc1ccccc1 (stereo unspecified) | i | 10 | i | i | -8
CCOc1ccc(NC(=O)C2CC(=O)N(CC)C(=Nc3ccc4c(c3)OCO4)S2)cc1 (stereo unspecified) | i | -9 | i | i | -6
N#CCCS(=O)(=O)c1nnnn1-c1ccccc1 | . | 0 | . | . | -7
Cc1ccc(NC(=O)CCc2c(C)nc3ncnn3c2C)nc1 | . | -6 | . | . | -6
C=CCN=c1sc(C(=O)OC)cc(=O)n1CC=C | . | 0 | . | . | -3
Cc1[nH]c(=O)[nH]c(=O)c1S(=O)(=O)N1CCC(C(=O)N2CCN(Cc3ccccc3)CC2)CC1 | . | -4 | . | . | -5
O=C(Cn1c(=O)oc2cc(S(=O)(=O)N3CCOCC3)ccc21)N1CCc2ccccc2C1 | . | 6 | . | . | 6
Cc1ccc(C)c(N2CCN(C(=O)c3ccc(CS(=O)(=O)c4ccccc4C)o3)CC2)c1 | i | 7 | i | i | -3
Cc1cccc(NC(=O)c2ccc3ccccc3n2)n1 | i | 4 | i | i | -18
CCOC(=O)N1CCC(N2C(=O)c3ccc(C(=O)NCc4ccco4)cc3C2=O)CC1 | i | -2 | i | i | 3
COc1ccc(CN2CC(C(=O)NCCCOC(C)C)CC2=O)cc1 (stereo unspecified) | i | -7 | i | i | -2
CCCN(CCC)CCNc1c(N2CCN(C(=O)OCC)CC2)c(=O)c1=O | . | 4 | . | . | -3
COCCCNC(=O)CC(NS(=O)(=O)c1ccc(OC)cc1)c1ccc(OC)cc1 (stereo unspecified) | . | 2 | . | . | -1
CCc1cc2c(=O)c(-c3nc4ccccc4[nH]3)coc2cc1OC(=O)N1CCOCC1 | i | 0 | i | i | -3
CCn1c(C(Cc2ccccc2)NC(=O)COC)nc2ccccc21 (stereo unspecified) | i | 7 | i | i | -6
CCN(CC)CCCN1C(=O)C(=O)/C(=C(/O)c2ccc(OC)cc2)C1c1ccco1 (stereo unspecified) | . | -9 | . | . | -14
Cc1cccc(Nc2ccccc2)c1 | . | -13 | . | . | 3
Cc1noc(C)c1S(=O)(=O)N1CCCC(C(=O)NCCc2ccccc2)C1 (stereo unspecified) | . | 0 | . | . | 2
O=C(NC1CCCC1)c1cnc2n(c1=O)CCS2 | . | -2 | . | . | -1
CCCCCOc1ccc(C2NC(=O)NC2=O)cc1 (stereo unspecified) | i | -3 | i | i | 8
C=CCOc1ccc(C2C(C(=O)c3ccco3)=C(O)C(=O)N2Cc2cccnc2)cc1 (stereo unspecified) | i | 25 | i | i | 25
O=C(O)c1ccc2c(c1)C(=O)N(C(Cc1ccc(O)cc1)C(=O)O)C2=O (stereo unspecified) | . | 3 | . | . | -1
O=C(C1CC(c2ccc(F)cc2)=NO1)N1CCN(c2ccccc2)CC1 (stereo unspecified) | . | -5 | . | . | -2
Cc1ccc(-n2nnc3c(SCC(=O)NCc4ccco4)ncnc32)cc1 | . | 12 | . | . | 4
CCOc1cc(C)c(Cl)cc1S(=O)(=O)N(C)C | i | -2 | i | i | -3
CCOc1ccc2nc(N3CCC(C(=O)N4CCN(c5ccccn5)CC4)CC3)sc2c1 | . | 3 | . | . | 12
N#CC(C(=O)Nc1ccc(Cl)c(Cl)c1)=C1Nc2ccccc2N1 | i | 4 | i | i | -4
Cc1ccc2c(C)nc(Nc3nc(CSc4nnnn4-c4ccccc4)cc(=O)[nH]3)nc2c1 | i | -7 | i | i | 0
Continued:
SMILES | VCAM-1 imaging | FPR ligand | VCAM-1 augmentation | VCAM-1 inhibition | FPRL1 ligand
CCCCNC(=O)CC1N=C2c3ccccc3N=C(SCC(=O)Nc3cccc(C)c3)N2C1=O (stereo unspecified) | . | 15 | . | . | -5
Cc1onc(-c2ccccc2)c1C(=O)Nc1ccccc1C#N | . | 4 | . | . | -1
Cc1ccc2nc(NC3=NCN(Cc4ccco4)CN3)nc(C)c2c1 | . | -10 | . | . | 1
COc1ccc(NC(=O)CN(c2cc(C)cc(C)c2)S(=O)(=O)c2c(C)n[nH]c2C)cc1 | . | 4 | . | . | 3
Fc1ccccc1C(c1nnnn1Cc1ccc2c(c1)OCO2)N1CCN(Cc2ccccc2)CC1 (stereo unspecified) | i | 9 | i | i | 10
CCOC(=O)N1CCN(S(=O)(=O)c2cc(OCC)ccc2OCC)CC1 | . | 3 | . | . | -13
Cc1nc(N2CCN(C)CC2)c2sc(=S)n(-c3ccccc3)c2n1 | . | 0 | . | . | 0
CCN1CCN(Cc2ccc(NC(=O)Nc3cccs3)cc2)CC1 | . | 1 | . | . | 4
O=C(Cn1cnc2ccccc2c1=O)NCC(=O)N1CCN(Cc2ccc3c(c2)OCO3)CC1 | . | 4 | . | . | -9
O=S(=O)(NCc1ccccn1)c1cccc2nsnc12 | . | -5 | . | . | 1
COc1cc(NC(=O)C(C)Oc2ccccc2)c(C(=O)O)cc1OC (stereo unspecified) | i | -3 | i | i | 8
CCOC(=O)c1ccc(Oc2cc(C)nc(SC)n2)cc1 | i | 7 | i | i | 5
CCn1cc(C(=O)NCc2ccccc2OC)c(=O)c2cc(S(=O)(=O)N(C)C)ccc21 | i | 10 | i | i | 2
CS(=O)(=O)NCC(c1cccnc1)N1CCN(c2ccc(F)cc2)CC1 (stereo unspecified) | i | -6 | i | i | 2
CCSC1=C(C#N)C(c2cccc(OC)c2)CC(=O)N1 (stereo unspecified) | i | -5 | i | i | -1
Cc1noc(/C=C/N(C)C)c1S(=O)(=O)N1CCCC(C(=O)N2CCCCC2)C1 (stereo unspecified) | i | -3 | i | i | -6
CC(=O)c1cccc(NC(=O)Nc2cc3sccc3n2C)c1 | . | 20 | . | . | 13
O=C(Nc1ccc2c(c1)nc1n2CCSC1)c1ccccc1 | i | -1 | i | i | 1
O=c1cc(CSc2nnc(-c3ccccc3)o2)c2ccccc2[nH]1 | . | -1 | . | . | 2
CCOC(=O)CSc1nnc(CNC(=O)c2ccc(OC)c(OC)c2)n1C | i | 0 | i | i | 1
Cc1cc(-c2ccccc2N)n[nH]1 | . | 2 | . | . | -3
Cc1nnc(SCCn2c(N3CCC(Cc4ccccc4)CC3)nc3c2c(=O)[nH]c(=O)n3C)s1 | i | -4 | i | i | 7
CSCCC(NC(=O)C1CCC(C)CC1)C(=O)NCc1ccco1 (stereo unspecified) | . | 2 | . | . | 2
O=C(Cn1cnc2c(cnn2-c2ccc(F)cc2)c1=O)N1CCCc2ccccc21 | i | -5 | i | i | 2
COc1ccc(-c2nn3c(-c4cccc(C)c4)nnc3s2)cc1OC | i | 0 | i | i | 4

Reprinted at random: three entries already listed, in no set order.
SMILES | VCAM-1 imaging | FPR ligand | VCAM-1 augmentation | VCAM-1 inhibition | FPRL1 ligand
O=C(Nc1ccc2c(c1)nc1n2CCSC1)c1ccccc1 | i | -1 | i | i | 1
Cc1noc(/C=C/N(C)C)c1S(=O)(=O)N1CCCC(C(=O)N2CCCCC2)C1 (stereo unspecified) | i | -3 | i | i | -6
CSCCC(NC(=O)C1CCC(C)CC1)C(=O)NCc1ccco1 (stereo unspecified) | . | 2 | . | . | 2

Part of the list above in order of number of heavy atoms, ascending.
SMILES | VCAM-1 imaging | FPR ligand | VCAM-1 augmentation | VCAM-1 inhibition | FPRL1 ligand
Cc1cc(-c2ccccc2N)n[nH]1 | . | 2 | . | . | -3
O=c1cc(CSc2nnc(-c3ccccc3)o2)c2ccccc2[nH]1 | . | -1 | . | . | 2
COc1ccc(-c2nn3c(-c4cccc(C)c4)nnc3s2)cc1OC | i | 0 | i | i | 4
Cc1noc(/C=C/N(C)C)c1S(=O)(=O)N1CCCC(C(=O)N2CCCCC2)C1 (stereo unspecified) | i | -3 | i | i | -6
O=C(Cn1cnc2c(cnn2-c2ccc(F)cc2)c1=O)N1CCCc2ccccc21 | i | -5 | i | i | 2
Cc1nnc(SCCn2c(N3CCC(Cc4ccccc4)CC3)nc3c2c(=O)[nH]c(=O)n3C)s1 | i | -4 | i | i | 7

A section of the results above:
SMILES | VCAM-1 imaging | FPR ligand | VCAM-1 augmentation | VCAM-1 inhibition | FPRL1 ligand
CSCCC(NC(=O)C1CCC(C)CC1)C(=O)NCc1ccco1 (stereo unspecified) | . | 2 | . | . | 2
O=C(Cn1cnc2c(cnn2-c2ccc(F)cc2)c1=O)N1CCCc2ccccc21 | i | -5 | i | i | 2
COc1ccc(-c2nn3c(-c4cccc(C)c4)nnc3s2)cc1OC | i | 0 | i | i | 4

Screens as filed in PubChem BioAssay.
